Compound activity as filed in PubChem BioAssay.
Vaccinia inh – Vaccinia orthopox stage-specific inhibition. Vaccinia-infected cells, mCherry/Venus stage reporter fluorescence; hits give low values; some inactives read as strong as hits. activity change (mCherry), % (concentration not given with the values). 89,000 compounds, 0.01% hits;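 active = mCherry past -33% and 40 or more points under the early reporter, replicates agreeing; inconclusive = past -33% without that gap or agreement; tested in A549 cells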;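 note: scaled between vehicle wells and reference inhibitor wells; 23 nL library stock went into each well; one replicate is shown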
Vaccinia inh Venus – second read-out of Vaccinia inh, no call of its own (marks repeat the call); activity change (Venus), %; measured here: Venus reporter, other viral stage;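 negative = less Venus signal; first of two replicates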
Active calls of the source: *; ? = inconclusive; · = not tested or not shown.

SMILES	Vaccinia inh	Vaccinia inh Venus
C[C@H](CO)N1C[C@H](C)[C@@H](CN(C)S(=O)(=O)c2cn(C)cn2)Oc2ncc(C3=CCCC3)cc2C1=O	17.2	10.1
C[C@@H](NC(=O)C[C@H]1CC[C@H](NC(=O)Nc2ccc3c(c2)OCO3)[C@H](CO)O1)c1ccccc1	-4.6	-2.5
CNC[C@@H]1Oc2c(NC(=O)Nc3ccc(F)cc3)cccc2C(=O)N([C@H](C)CO)C[C@@H]1C	-1.8	4.2
C[C@@H]1CN([C@H](C)CO)C(=O)Cc2cc(NC(=O)Nc3cccc4ccccc34)ccc2O[C@H]1CN(C)Cc1ccc(Oc2ccccc2)cc1	-3.5	-4.7
C[C@H]1CN([C@@H](C)CO)C(=O)CCCn2cc(nn2)CO[C@@H]1CN(C)Cc1cccc(O)c1	8.8	4.1
C[C@H]1CN([C@@H](C)CO)C(=O)CCCn2nncc2CO[C@H]1CN(C)Cc1ccc(Cl)c(Cl)c1	?	·
COc1ccc(-c2ccc3c(c2)[C@@H]2[C@@H](CCN2C(=O)NC2CCCC2)[C@@H](CO)N3C)cc1	-2.1	-6.1
COc1ccc(C[C@@H]2CCc3cnnn3COC[C@@H](c3ccccc3)NC2=O)cc1	0.7	-1.7
C[C@H](CO)N1C[C@H](C)[C@@H](CN(C)C(=O)Nc2cccc3ccccc23)Oc2ccc(NC(=O)Nc3ccc(C(F)(F)F)cc3)cc2CC1=O	2.1	7.8
C[C@H]1CN([C@@H](C)CO)C(=O)c2c(c3ccccc3n2C)-c2ccccc2CO[C@H]1CN(C)Cc1cccc2c1OCCCO2	?	·
C[C@@H]1CN([C@H](C)CO)C(=O)CCCn2cc(nn2)CO[C@@H]1CN(C)S(=O)(=O)c1ccc2ccccc2c1	-13.1	-6.3
O=C(Cc1ccccn1)NCC[C@H]1CC[C@H](NC(=O)Nc2ccc(Cl)cc2)[C@@H](CO)O1	2.9	5.8
CO[C@H]1CN(C)C(=O)c2ccc(NC(=O)Nc3ccc(C(F)(F)F)cc3)cc2OC[C@H](C)NC[C@H]1C	?	·
C[C@@H]1CN([C@@H](C)CO)S(=O)(=O)c2ccc(-c3ccncc3)cc2O[C@H]1CN(C)C(=O)c1ccc2c(c1)OCO2	20.5	12.0
O=C(N[C@H]1CC[C@@H](CC(=O)N2CCc3ccccc3C2)O[C@H]1CO)C1CCOCC1	-3.9	-0.1
CNC[C@H]1Oc2ccc(NC(=O)Cc3ccccc3)cc2C(=O)N([C@@H](C)CO)C[C@@H]1C	-2.3	2.7
CN(C)CCCNC(=O)C[C@@H]1CC[C@@H]2[C@H](COc3ccc(NC(=O)c4cccc(F)c4)cc3C(=O)N2C)O1	4.1	3.4
O=C(C[C@@H]1C=C[C@@H](NC(=O)Nc2ccc(F)cc2)[C@H](CO)O1)NCCN1CCCC1	2.3	-1.2
Cc1ccc(S(=O)(=O)N(C)C[C@@H]2Oc3ccc(NC(=O)Nc4ccc(C(F)(F)F)cc4)cc3C(=O)N([C@@H](C)CO)C[C@@H]2C)cc1	-20.4	-5.3
O=C(C[C@@H]1CC[C@H]2[C@@H](COC[C@@H](O)CN2C(=O)Nc2cccc(F)c2)O1)NCCCN1CCOCC1	0.1	-3.3
Cc1noc(C)c1NC(=O)N(C)C[C@@H]1Oc2ccc(NC(=O)Nc3ccc(C(F)(F)F)cc3)cc2CC(=O)N([C@H](C)CO)C[C@@H]1C	5.0	3.8
O=C(Cc1cccnc1)N1CCCCN2[C@@H](CO)[C@H](c3ccc(C#CC4(O)CCCC4)cc3)[C@@H]2C1	33.7	11.8
O=C(NCc1ccccc1)[C@H]1[C@H](CO)[C@H]2Cn3c(cccc3=O)[C@@H]1N2CC1CCCC1	6.2	10.7
C[C@H]1CCCCO[C@H](CN(C)C)[C@@H](C)CN([C@@H](C)CO)C(=O)c2cc(NC(=O)Nc3ccc4c(c3)OCO4)ccc2O1	7.6	11.9
O=C(C[C@H]1C[C@@H]2c3cc(NC(=O)Nc4ccccc4F)ccc3O[C@@H]2[C@H](CO)O1)NCCc1ccccc1	6.2	8.3
O=C(C[C@@H]1C[C@@H]2c3cc(NC(=O)Nc4ccccc4F)ccc3O[C@@H]2[C@H](CO)O1)NCc1ccc2c(c1)OCO2	-10.0	-1.3
COc1ccc(CN(C)C[C@@H]2Oc3ccc(NS(=O)(=O)c4ccc(Cl)cc4)cc3C(=O)N([C@@H](C)CO)C[C@H]2C)cc1	2.6	-3.1
CCNC(=O)C[C@@H]1CC[C@@H]2[C@@H](COc3ccc(NC(=O)Nc4cccc(Cl)c4)cc3C(=O)N2C)O1	-4.8	1.2
C[C@H](CO)N1C[C@H](C)[C@@H](CN(C)Cc2ccc(Cl)c(Cl)c2)Oc2ccc(NS(=O)(=O)c3cn(C)cn3)cc2CC1=O	-12.8	-18.6
CNC(=O)C[C@@H]1CC[C@H]2[C@H](COc3ccc(NC(=O)NC4CCCC4)cc3C(=O)N2C)O1	1.3	2.0
C[C@H]1CCCCO[C@H](CN(C)Cc2ccc(C(F)(F)F)cc2)[C@@H](C)CN([C@@H](C)CO)C(=O)c2cc(NS(=O)(=O)c3cn(C)cn3)ccc2O1	-11.4	-16.9
O=C(C1CCCC1)N1[C@@H]2CN(S(=O)(=O)c3ccccc3)c3ccccc3[C@@H]2[C@@H]1CO	11.1	-2.9
C[C@@H]1CN([C@@H](C)CO)C(=O)Cc2cc(NC(=O)c3ccncc3)ccc2O[C@H]1CN(C)C(=O)Nc1ccc(C(F)(F)F)cc1	-0.8	-4.7
C[C@H](CO)N1C[C@H](C)[C@H](CN(C)S(C)(=O)=O)Oc2ncc(-c3ccccc3)cc2C1=O	16.9	24.0
O=C(Cc1cccnc1)N1CC(=O)N2[C@@H](CO)[C@@H](c3ccc(C#CC4CC4)cc3)[C@@H]2C1	-11.9	-9.9
C[C@H](CO)N1C[C@H](C)[C@H](CN(C)S(=O)(=O)c2ccc(Cl)cc2)Oc2ccc(NS(=O)(=O)c3cn(C)cn3)cc2CC1=O	10.1	7.5
O=C(O)C[C@H]1CC[C@H]2[C@@H](COC[C@@H](O)CN2S(=O)(=O)c2ccc(F)cc2)O1	3.7	2.1
O=C(Cc1ccccn1)N1CCCCN2[C@@H](CO)[C@H](c3ccc(Br)cc3)[C@@H]2C1	20.6	4.3
CO[C@H](CN(C)S(=O)(=O)c1ccc(Cl)cc1)[C@H](C)CN([C@H](C)CO)S(=O)(=O)c1cccc(Cl)c1	-27.5	-17.7
C[C@@H]1CN([C@H](C)CO)S(=O)(=O)c2ccc(C#CC3CC3)cc2O[C@H]1CN(C)C	-2.2	-18.3

Profiles as entered above. Order of values: Vaccinia inh	Vaccinia inh Venus
CNC(=O)C[C@@H]1CC[C@H]2[C@H](COc3ccc(NC(=O)NC4CCCC4)cc3C(=O)N2C)O1 across the screens: 1.3	2.0
O=C(Cc1cccnc1)N1CC(=O)N2[C@@H](CO)[C@@H](c3ccc(C#CC4CC4)cc3)[C@@H]2C1 across the screens: -11.9	-9.9

Next part.
Order of results: Vaccinia inh	Vaccinia inh Venus
O=C(C[C@H]1C=C[C@@H](NS(=O)(=O)c2ccc(F)cc2)[C@H](CO)O1)NCc1ccc(Cl)c(Cl)c1
 : ?	·
C[C@H](NC(=O)C[C@H]1CC[C@H]2[C@@H](COC[C@H](O)CN2Cc2ccc(C(F)(F)F)cc2)O1)c1ccccc1
 : -30.9	-32.2
Cc1ccc(S(=O)(=O)NCC[C@H]2CC[C@H](NC(=O)c3cnccn3)[C@H](CO)O2)cc1
 : -8.2	2.2
COc1ccccc1CNC(=O)C[C@H]1C=C[C@@H](NC(=O)CC2CC2)[C@H](CO)O1
 : 4.3	7.8
CC(C)NC(=O)Nc1ccc2c(c1)CC(=O)N([C@@H](C)CO)C[C@H](C)[C@H](CN(C)C(=O)NC1CCCCC1)O2
 : 11.8	5.9
O=C(C[C@H]1CC[C@H](NS(=O)(=O)c2ccc(F)cc2)[C@H](CO)O1)NC1CCC1
 : 11.0	0.5
Cc1cc(C(=O)Nc2cccc3c2O[C@@H](CN(C)C)[C@H](C)CN([C@@H](C)CO)C3=O)n(C)n1
 : 20.2	13.8
CC(C)CC#Cc1ccc2c(c1)O[C@H](CN(C)C)[C@@H](C)CN([C@@H](C)CO)S2(=O)=O
 : ?	·
CCC(=O)N1C[C@H](C)[C@H](OC)CN(C)C(=O)c2cc(NC(=O)C3CCCCC3)ccc2OC[C@H]1C
 : 1.1	-4.8
O=C(C[C@H]1CC[C@H]2[C@@H](COC[C@H](O)CN2C(=O)c2ccccc2F)O1)NCc1ccc(Cl)cc1
 : 1.1	4.7
COc1ccccc1S(=O)(=O)N(C)C[C@@H]1OCc2cnnn2CCCC(=O)N([C@@H](C)CO)C[C@@H]1C
 : 11.3	14.6
C[C@H]1CN([C@@H](C)CO)C(=O)c2cc(-c3cccnc3)cnc2O[C@H]1CN(C)C(=O)c1cccc(F)c1
 : 8.7	3.0
O=C(Nc1ccc2c(c1)OCO2)N[C@@H]1CC[C@@H](CCNC(=O)C2CC2)O[C@@H]1CO
 : 1.9	3.2
COC(=O)[C@@]1(Cc2ccccc2)COC(c2ccc(OCCCO)cc2)=N1
 : 1.6	1.0
CCNC(=O)C[C@@H]1CC[C@H]2[C@H](COc3ccc(NC(=O)c4cscn4)cc3C(=O)N2C)O1
 : -5.9	0.3

Rewritten as labelled records: four of the compounds above.
CC(C)NC(=O)Nc1ccc2c(c1)CC(=O)N([C@@H](C)CO)C[C@H](C)[C@H](CN(C)C(=O)NC1CCCCC1)O2
  Vaccinia inh: 11.8; Vaccinia inh Venus: 5.9

O=C(C[C@H]1CC[C@H](NS(=O)(=O)c2ccc(F)cc2)[C@H](CO)O1)NC1CCC1
  Vaccinia inh: 11.0; Vaccinia inh Venus: 0.5

Cc1cc(C(=O)Nc2cccc3c2O[C@@H](CN(C)C)[C@H](C)CN([C@@H](C)CO)C3=O)n(C)n1
  Vaccinia inh: 20.2; Vaccinia inh Venus: 13.8

CC(C)CC#Cc1ccc2c(c1)O[C@H](CN(C)C)[C@@H](C)CN([C@@H](C)CO)S2(=O)=O
  Vaccinia inh: ?; Vaccinia inh Venus: ·

The results go on.
Order of results: Vaccinia inh	Vaccinia inh Venus
CN1C(=O)c2cc(NC(=O)c3ccno3)ccc2OC[C@H]2O[C@@H](CC(=O)NCC3CC3)CC[C@@H]21
 : 9.7	1.9
C[C@@H]1CCCCO[C@@H](CN(C)Cc2ccncc2)[C@@H](C)CN([C@@H](C)CO)C(=O)c2cc(NC(=O)Nc3ccc(C(F)(F)F)cc3)ccc2O1
 : -22.8	-12.6
COc1cccc(-c2ccc([C@@H]3[C@@H](CO)N4C(=O)CN(C(=O)C5CCC5)C[C@@H]34)cc2)c1
 : -16.7	-13.5
Cc1ccc(S(=O)(=O)Nc2ccc3c(c2)CC(=O)N([C@H](C)CO)C[C@H](C)[C@@H](CN(C)Cc2ccncc2)O3)cc1
 : 9.1	2.8
O=C(C[C@@H]1CC[C@H]2[C@@H](COC[C@H](O)CN2Cc2nccs2)O1)N1CCC(Cc2ccccc2)CC1
 : -13.3	-12.5
O=C(c1ccccc1)N1C[C@H]2[C@@H](c3ccccc31)[C@@H](CO)N2C(=O)CN1CCOCC1
 : -2.1	4.9
C[C@@H]1CN([C@H](C)CO)C(=O)c2cccc(NS(=O)(=O)c3ccccc3)c2O[C@@H]1CN(C)C
 : 7.0	2.6
CCC(=O)N1C[C@H]2[C@@H](c3ccccc31)[C@H](CO)N2C(=O)Nc1ccccc1F
 : 7.9	3.9
CCNC(=O)C[C@@H]1CC[C@H]2[C@@H](COC[C@H](O)CN2C(=O)Nc2ccc(C(F)(F)F)cc2)O1
 : -9.4	-2.3
CN1C(=O)c2cc(NC(=O)C3CCC3)ccc2OC[C@@H]2O[C@H](CC(=O)NCCc3ccncc3)CC[C@@H]21
 : 12.1	-2.3
C[C@H]1CN([C@@H](C)CO)C(=O)Cc2cc(NC(=O)Nc3ccc(C(F)(F)F)cc3)ccc2O[C@H]1CN(C)C(=O)Nc1cccc2ccccc12
 : -8.7	12.6
O=C(Nc1ccccc1)N1C[C@@H]2[C@H](c3ccccc31)[C@@H](CO)N2C(=O)Cc1ccccn1
 : -5.4	-6.5
O=C(c1ccccn1)N1CC[C@@H]2[C@H]1c1cc(C#Cc3ccccc3)ccc1N[C@@H]2CO
 : -11.3	-0.9
CCc1cccc(NC(=O)O[C@H]2[C@H](OC(=O)Nc3ccc4c(c3)OCO4)[C@@H](OC(=O)Nc3ccc4c(c3)OCO4)[C@@H](OC)O[C@@H]2CO)c1
 : -26.3	-20.6
Cc1noc(C)c1NC(=O)N(C)C[C@H]1OCCCC[C@@H](C)Oc2ccc(NC(=O)NC3CCCCC3)cc2C(=O)N([C@H](C)CO)C[C@@H]1C
 : 26.5	15.0
COc1ccc(CN(C)C[C@@H]2OCc3cn(nn3)CCCC(=O)N([C@@H](C)CO)C[C@@H]2C)cc1
 : 5.9	12.7
C[C@H](CO)N1C[C@H](C)[C@H](CN(C)CC2CC2)Oc2ccc(NC(=O)Nc3ccc(C(F)(F)F)cc3)cc2CC1=O
 : -23.9	-4.0
C[C@@H]1CN([C@@H](C)CO)C(=O)Cc2cc(NS(=O)(=O)c3cn(C)cn3)ccc2O[C@H]1CN(C)Cc1ccc(Cl)c(Cl)c1
 : -27.3	-12.4
C[C@H]1CN([C@@H](C)CO)C(=O)Cc2cc(NC(=O)C3CCCCC3)ccc2O[C@H]1CN(C)CC1CCCCC1
 : -13.4	-12.7
O=C(C[C@@H]1C=C[C@H](NC(=O)CN2CCOCC2)[C@H](CO)O1)NCCc1ccncc1
 : 8.4	7.4

Some of the compounds tested; the hit share may differ from the screen's.
